# From PubChem BioAssay
# GALR2 ag: GALR2 (human) receptor agonism | O43603 | GALR2-expressing cells, agonist activation read-out | activation, %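 (tested at 5 µM)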 | 140,000 compounds, 0.48% hits;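 active means above mean plus 3 SD of all compounds, about 5% in these data, not always enough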;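 further: 0% = vehicle buffer wells and 100% = reference agonist at full effect; tested in CHO reporter cells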
# INS promoter inh: TRM-6 insulin promoter activity inhibition. TRM-6 cells (human fetal islet line), insulin promoter-eGFP reporter, imaging; reporter expression induced with tamoxifen. AID 1273. 130,000 compounds, 0.9% hits. inhibition, % at 2 µM;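 active means inhibition above the mean plus 3 SD, with well images judged a real hit on visual review, cut at about 60% in these data, passing the limit was not always enough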
# PKD1 inh: blocks activity of human protein kinase D1 | Q15139 | PKD1 kinase fluorescence polarization assay | inhibition, %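 (about 10 µM by stock and volumes)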 | 200,000 compounds, 0.056% hits | AID 797;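 active means inhibition of 50% or more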;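 further: controls were vehicle for no effect and a reference inhibitor for full effect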
# Target sequence (Q15139 whole entry, looked up): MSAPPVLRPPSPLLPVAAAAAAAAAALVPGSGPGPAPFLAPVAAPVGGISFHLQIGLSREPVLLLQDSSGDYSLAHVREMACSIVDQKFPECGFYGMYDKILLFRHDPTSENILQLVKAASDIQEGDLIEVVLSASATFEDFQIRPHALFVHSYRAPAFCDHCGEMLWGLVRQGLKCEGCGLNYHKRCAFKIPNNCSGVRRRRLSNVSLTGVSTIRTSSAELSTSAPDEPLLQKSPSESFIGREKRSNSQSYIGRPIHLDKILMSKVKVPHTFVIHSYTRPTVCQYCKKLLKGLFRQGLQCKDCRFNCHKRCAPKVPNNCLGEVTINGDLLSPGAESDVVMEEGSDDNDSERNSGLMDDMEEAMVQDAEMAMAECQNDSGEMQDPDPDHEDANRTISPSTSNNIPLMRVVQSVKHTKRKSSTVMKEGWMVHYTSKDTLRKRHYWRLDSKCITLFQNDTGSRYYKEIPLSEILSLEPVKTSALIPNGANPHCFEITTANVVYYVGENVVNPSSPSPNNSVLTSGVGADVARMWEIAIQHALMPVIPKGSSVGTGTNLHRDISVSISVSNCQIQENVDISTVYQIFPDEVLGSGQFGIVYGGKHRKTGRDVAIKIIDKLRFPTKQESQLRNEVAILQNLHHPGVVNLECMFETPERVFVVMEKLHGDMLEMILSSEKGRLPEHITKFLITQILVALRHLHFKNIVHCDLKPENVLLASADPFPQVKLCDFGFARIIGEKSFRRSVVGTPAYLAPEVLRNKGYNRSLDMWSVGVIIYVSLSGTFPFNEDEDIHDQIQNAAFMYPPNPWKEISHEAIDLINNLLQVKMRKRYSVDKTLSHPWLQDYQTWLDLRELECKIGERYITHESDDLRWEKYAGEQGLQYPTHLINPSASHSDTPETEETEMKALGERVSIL
# HSV replic up: HSV replication enhancement; HSV replication augmentation in cells, fold increase; maximum fold increase; 220,000 compounds, 0.005% hits;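 active means peak rise of 1.5-fold or more in the series; tested in PC3 cells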;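 further: first round at 10 µM; read as green reporter fluorescence; hits show the peak of a series up to 25 µM; 1 = signal of infected wells without compound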
# RGS16-Gao HTS: regulators of human RGS16-Galphao interaction; binding response (% of control), % at 10 µM; O15492+P09471; 220,000 compounds, 0.38% hits; bead-based flow cytometry RGS16-Galphao binding, fluorescence; actives lie on both sides; AID 1441;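 active means below 25% or above 175%, edge rows of some plates excepted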;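 further: Galphao activated by GDP with aluminum fluoride before binding; 100% = wells without compound and 0% = beads without RGS; some results beyond the cut were filed as inactive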
# INS promoter inh cell count: further read-out of INS promoter inh, marked with its call; normalized cell count, %; measured here: cell count, toxicity; reference of the scale not given here;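 cells exposed to compound for 48 h; stained nuclei by imaging scaled within each plate; lower means fewer cells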
# HSV replic up primary fold: second read-out of HSV replic up, no call of its own (marks repeat the call); fold increase; compound at 10 µM; measured here: primary screen fold increase 10 uM; tested in PC3 cells;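 GFP signal in the first replicate; 1 = infected wells without compound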
# Active calls of the source: *; i = inactive; . = no result given.
SMILES,GALR2 ag,INS promoter inh,INS promoter inh cell count,PKD1 inh,HSV replic up,HSV replic up primary fold,RGS16-Gao HTS
C#CCNC(=O)C1=C[C@@H](c2ccc(Br)cc2)[C@H](CCCO)[C@@H](OCC)O1,.,.,.,-3,i,0.85,89
O=C(O)CSCc1ccc(Cl)cc1,-1.1,20,106,11,i,0.96,100
CCOC(=O)c1cccc(NC(=O)CSc2nnc(C3CCCCC3)n2CC)c1,0.2,-20,94,-10,i,0.85,103
O=C(Nc1ccccc1OC(F)F)c1ccccc1,-1.6,-88,84,-3,i,0.8,99
O=C(Nc1ccc(S(=O)(=O)Nc2ncccn2)cc1)c1cccc(S(=O)(=O)N2CCCC2)c1,.,.,.,.,i,0.91,102
COc1ccc2c(c1)c(C(O)CN1CCC(Cc3ccccc3)CC1)c(C)n2C (stereo not given),-0.4,2,171,-4,.,.,105
COc1ccc(NC(=O)NCCN2CCN(c3cccc(Cl)c3)CC2)cc1,-1.9,-30,48,-10,i,0.81,100
COC(=O)CCC(=O)OC1(C)C(=O)C=C2C=C(C3CC3)N(c3cccc(C#N)c3)C=C2C1=O (stereo not given),.,.,.,.,i,1.1,104
O=C(Nc1ccccn1)c1cc2ccccc2o1,-1.7,33,95,-10,i,0.98,56
CN(CC(=O)Nc1ccccc1C(F)(F)F)C(=O)COc1ncnc2ccccc12,.,45,48,-4,i,1.1,106
Cc1ccc(S(=O)(=O)Nc2nc(-c3ccc(F)cc3)cs2)cc1,.,.,.,.,i,1,108
C/C(=C\c1ccccc1)CN1CCC(C(=O)N2CCCCC2)CC1,0.5,-62,100,8,i,1.1,109
CC(=O)Nc1ncc(Cc2cccc(Cl)c2Cl)s1,.,.,.,0,i,0.96,100
Cc1nc(N)c(Cc2ccc(Cl)cc2Cl)c(N)n1,.,-29,41,-2,i,0.88,98
Cc1cc(C)c2c(N)c(C(=O)c3ccc(Cl)c(Cl)c3)sc2n1,.,70*,103*,-5,i,0.97,106
C=CCOn1c(=O)c(-c2cccs2)[n+]([O-])c2ccccc21,-3.8,36,100,-8,i,0.79,96
O=C(O)c1ccc(-c2nc(-c3ccc(Cl)cc3)cs2)cc1,.,-118,115,-6,i,1,113
C=CCN=C1SCC(=O)N1S(=O)(=O)c1ccc(C)cc1,-1.3,38,76,-23,i,0.98,79
CCn1c(C2CCN(S(=O)(=O)c3ccc(OC)cc3)CC2)n[nH]c1=S,.,-62,113,-5,i,0.92,101
NS(=O)(=O)c1ccc(NC(=O)COC(=O)c2c3c(nc4ccccc24)/C(=C\c2ccc4c(c2)OCO4)CCC3)cc1,1.9,-69,150,0,.,.,55
Cc1ccc(C(=O)NCCc2ccc(S(=O)(=O)N3CCCC3)cc2)cc1,.,-141,77,-6,i,0.95,102
Cc1cc(C(=O)Nc2ccc3c(c2)CCC3)c2ccccc2n1,.,-92,95,-2,i,0.99,106
C=C(C)CNC(=S)Nc1cccc2cnccc12,-0.1,.,.,-4,i,0.69,106
CC(=O)NCCn1c(SCc2ccc(C)cc2)nc2ccccc2c1=O,-0.7,-40,93,-8,i,0.99,84
COc1ccc(-c2ccnc(-c3ccc(OCCCF)cc3)n2)cc1,-2.2,-37,85,-3,i,0.87,106
CCCCNC(=O)Oc1cccc(N2CCCC2=O)c1,-0.5,26,83,-1,i,0.93,93
C=CCNC(=O)COc1cc(C)ccc1C,-1.0,0,117,-6,i,0.95,106
CCOc1ccccc1NC(=O)C1CCCN(S(=O)(=O)c2c(C)[nH]c(=O)[nH]c2=O)C1 (stereo not given),-1.7,-11,94,-3,i,0.97,102
Cc1cc(C)n(-c2ccc(C(=O)Nc3cccc([N+](=O)[O-])c3)cc2)n1,.,.,.,-2,i,0.95,99
COc1cccc(C(=O)Nc2ccc(C3CC3(Cl)Cl)cc2)c1 (stereo not given),.,.,.,-2,i,0.65,100

# Only INS promoter inh cell count and HSV replic up primary fold, for some of the entries so far:
Compound | INS promoter inh cell count | HSV replic up primary fold
CCCCNC(=O)Oc1cccc(N2CCCC2=O)c1 | 83 | 0.93
C=CCNC(=O)COc1cc(C)ccc1C | 117 | 0.95

# Next part.
SMILES,GALR2 ag,INS promoter inh,INS promoter inh cell count,PKD1 inh,HSV replic up,HSV replic up primary fold,RGS16-Gao HTS
CCCCSc1nc(C)cc(NC(=S)Nc2ccc(OC)cc2)n1,-1.9,-12,86,6,i,0.84,99
O=C(CSc1nnc(Cc2cc(=O)[nH]c(=O)[nH]2)n1-c1ccc(Cl)cc1)NC1CCCC1,-3.3,.,.,13,i,1.6,101
Cc1ccc(-c2nn(-c3ccccc3)cc2C(=O)N2CCOCC2)cc1,-1.2,.,.,-8,i,0.91,103
Nn1c(Cc2ccccc2F)n[nH]c1=S,.,.,.,5,i,0.97,104
COc1ccc(CN(Cc2cc3cc(C)ccc3[nH]c2=O)C(=O)N(C)C)cc1,-0.1,.,.,3,i,0.91,105
CCCCN1C2CCCC1CC(NC(=O)C1CCCCC1)C2 (stereo not given),-2.2,-67,117,5,i,0.81,101
COc1ccc(C2C(C(=O)c3ccc(C)o3)=C(O)C(=O)N2c2cc(C)on2)cc1OC (stereo not given),-1.1,.,.,-3,i,0.98,98
COC(=O)Cn1cc(/C=N/NC(=O)COc2cccc3cccnc23)c2ccccc21,0.5,.,.,10,i,0.87,100
O=C(Nc1cccc([N+](=O)[O-])c1)c1ccn[nH]1,.,-50,130,-4,i,0.93,104
O=C1CCC(=O)N1CCOP1(=O)COc2ccccc2OC1,-0.9,-13,101,0,i,0.97,102
O=C(C1CCN(S(=O)(=O)c2ccccc2)CC1)N(CCc1ccccc1)Cc1ccco1,-0.7,.,.,-1,i,1,30
Cc1cc(NC(=O)Cc2cccs2)no1,-3.0,-54,166,-3,.,.,86
O=C(Nc1nccs1)c1ccccc1[N+](=O)[O-],-0.4,23,114,-4,i,0.94,100
COCCn1nnnc1C(c1ccccn1)N1CCN(c2cc(C)ccc2C)CC1 (stereo not given),-3.0,29,96,-2,i,0.94,94
CCOc1ccc(OCC)c(NC(=O)C2CCCN(S(=O)(=O)c3cnc[nH]3)C2)c1 (stereo not given),-1.6,.,.,-10,i,0.97,85
COc1cccc(/C=N/NC(=O)c2ccc(-c3ccccc3)cc2)c1O,-2.2,-3,160,-1,i,0.73,84
CC(=O)Nc1ccc(NC(=O)CN(c2ccc(C(C)C)cc2)S(=O)(=O)c2ccccc2)cc1,.,.,.,-4,i,0.8,99
Cc1cc(C(=O)NCc2ccco2)no1,0.6,8,103,-4,i,0.96,96
CC(C)c1ccc(N2C(=O)CC(Sc3nc4ccccc4o3)C2=O)cc1 (stereo not given),-1.6,32,164,-10,i,0.86,105
COc1ccc(Cl)cc1N(C(C)C(=O)NC1CCCC1)S(C)(=O)=O (stereo not given),.,2,101,5,i,1.1,100
O=c1cc(-c2ccccc2Cl)oc2c(NS(=O)(=O)c3ccccc3OC(F)(F)F)ccc(O)c12,.,.,.,.,i,0.92,97
Cc1ccc(OCC(=O)Nc2sc3c(c2C#N)CCC3)cc1,0.2,44,53,7,i,0.94,96
COc1cccc(CC(=O)Nc2nccs2)c1,-1.8,-10,121,-2,i,1.1,104
Cc1cc(C)n(CCCC(=O)O)n1,.,.,.,-5,i,0.96,102
COC(=O)c1ccc(C(=O)OC)c(NC(=O)CN2CCN(c3ccccc3OC)CC2)c1,0.5,.,.,9,i,0.78,151
Brc1ccc(OCCOCCOc2cccc3cccnc23)cc1,-0.6,20,50,-3,i,0.89,.
COc1ccc(NC(=S)N2CCN(CCN=CC3=C(O)CC(c4ccccc4)CC3=O)CC2)cc1 (stereo not given),-0.1,11,97,-8,i,0.97,105
C=CCN(C(=O)CNC(=O)c1ccco1)C(C(=O)NC1CCCCC1)c1ccccc1 (stereo not given),-0.2,.,.,-17,i,1,99
Cn1nnc(NC(=O)c2cccc([N+](=O)[O-])c2)n1,.,.,.,.,i,0.94,100
CC(C)(C)c1nnc(NC(=O)C2CCN(c3ncccn3)CC2)s1,0.9,-41,60,-4,i,0.94,116

# Some of the entries so far, with two lines to a compound.
# Values run as follows: GALR2 ag, INS promoter inh, INS promoter inh cell count, PKD1 inh, HSV replic up, HSV replic up primary fold, RGS16-Gao HTS
C#CCNC(=O)C1=C[C@@H](c2ccc(Br)cc2)[C@H](CCCO)[C@@H](OCC)O1
 : ., ., ., -3, i, 0.85, 89
O=C(O)CSCc1ccc(Cl)cc1
 : -1.1, 20, 106, 11, i, 0.96, 100
CCOC(=O)c1cccc(NC(=O)CSc2nnc(C3CCCCC3)n2CC)c1
 : 0.2, -20, 94, -10, i, 0.85, 103
O=C(Nc1ccccc1OC(F)F)c1ccccc1
 : -1.6, -88, 84, -3, i, 0.8, 99
O=C(Nc1ccc(S(=O)(=O)Nc2ncccn2)cc1)c1cccc(S(=O)(=O)N2CCCC2)c1
 : ., ., ., ., i, 0.91, 102
COc1ccc2c(c1)c(C(O)CN1CCC(Cc3ccccc3)CC1)c(C)n2C (stereo not given)
 : -0.4, 2, 171, -4, ., ., 105
COc1ccc(NC(=O)NCCN2CCN(c3cccc(Cl)c3)CC2)cc1
 : -1.9, -30, 48, -10, i, 0.81, 100
COC(=O)CCC(=O)OC1(C)C(=O)C=C2C=C(C3CC3)N(c3cccc(C#N)c3)C=C2C1=O (stereo not given)
 : ., ., ., ., i, 1.1, 104
O=C(Nc1ccccn1)c1cc2ccccc2o1
 : -1.7, 33, 95, -10, i, 0.98, 56
CN(CC(=O)Nc1ccccc1C(F)(F)F)C(=O)COc1ncnc2ccccc12
 : ., 45, 48, -4, i, 1.1, 106
Cc1ccc(S(=O)(=O)Nc2nc(-c3ccc(F)cc3)cs2)cc1
 : ., ., ., ., i, 1, 108
C/C(=C\c1ccccc1)CN1CCC(C(=O)N2CCCCC2)CC1
 : 0.5, -62, 100, 8, i, 1.1, 109
CC(=O)Nc1ncc(Cc2cccc(Cl)c2Cl)s1
 : ., ., ., 0, i, 0.96, 100
Cc1nc(N)c(Cc2ccc(Cl)cc2Cl)c(N)n1
 : ., -29, 41, -2, i, 0.88, 98
Cc1cc(C)c2c(N)c(C(=O)c3ccc(Cl)c(Cl)c3)sc2n1
 : ., 70*, 103*, -5, i, 0.97, 106
C=CCOn1c(=O)c(-c2cccs2)[n+]([O-])c2ccccc21
 : -3.8, 36, 100, -8, i, 0.79, 96

# Going on with the list:
SMILES,GALR2 ag,INS promoter inh,INS promoter inh cell count,PKD1 inh,HSV replic up,HSV replic up primary fold,RGS16-Gao HTS
CC(=O)Nc1cc2c(nc1C)nc(C)n2Cc1ccc(Br)cc1,-1.2,-4,90,-4,.,.,125
C=CCn1c(SCC(=O)NC23CC4CC(CC(C4)C2)C3)nc2cc(C(=O)O)ccc2c1=O,.,42,107,-5,i,0.96,109
CSc1ccc(C2c3[nH]c4ccccc4c3CCN2C(=O)c2cc(C)n(C)n2)cc1 (stereo not given),.,.,.,-1,i,0.89,101
CCc1sc(NC(=O)COC)nc1-c1ccccc1,-1.5,-57,99,-1,i,0.93,109
CC(C)Cn1c(SCC(=O)NC(=O)Nc2ccc3c(c2)OCCO3)nc2ccccc2c1=O,-0.6,2,81,-8,i,0.81,98
Nc1cccc(CCc2nc3cc4ccccc4cc3[nH]2)c1,-0.9,43,66,-10,i,0.65,8.6*
CCNC(=O)NC(=O)CSc1cccc(C(F)(F)F)c1,-1.8,4,53,-1,i,0.88,99
CC(=O)Cc1nsc(Nc2ccc(F)cc2)n1,.,-33,143,-5,i,0.93,106
CC(=O)n1cc(N(C(=O)CCl)c2ccc(Cl)cc2)c2ccccc21,.,.,.,.,i,0.79,100
CC1=C(C(=O)OCC(Br)(Br)Br)C(c2ccc(Br)cc2)NC(=O)N1CCCC(=O)O (stereo not given),-1.1,-35,118,-2,i,1.1,108
CCOC(=O)c1[nH]c2ccccc2c1CCCN1C(=O)c2ccccc2C1=O,1.1,-37,90,3,i,0.86,100
OC1(c2ccc(Cl)cc2)CN(c2ccccc2)C2=[N+]1CCS2 (stereo not given),.,33,97,2,i,1,102
Brc1ccc(-c2noc(C3CCCCC3)n2)cc1,.,.,.,1,i,0.97,86
Cc1nn(CCO)c(C)c1Oc1ccccc1O,-0.6,.,.,-16,i,1,93
CC(C(=O)NCc1ccccc1)N(CCN1CCOCC1)C(=O)c1snc(C(N)=O)c1N (stereo not given),-1.5,.,.,-14,.,.,.
COc1ccc(-n2nc(C(=O)NCC(=O)NCc3ccccc3OC)c3ccccc3c2=O)c(OC)c1,.,10,107,3,i,0.88,102
COc1ccc(NC(=O)CSc2nnc(-c3ccccc3C)n2C)cc1,2.0,26,144,-13,i,1,103
CN1/C(=C\C(=O)c2ccccc2Cl)c2ccccc2CC1(C)C,-1.2,-35,117,-7,i,0.93,97
Cc1oc(C2CC2)cc1C(=O)O,-0.5,10,78,3,i,1,97
